Env fusion inh = HIV envelope-mediated fusion inhibition. HeLa-JRFL Env/CEM21 cell fusion, luciferase. inhibition, % at 12.3 µM. 360,000 tested, 1.1% active. AID 651610;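 active = mean replicate inhibition score of at least 50 and every replicate individually at or above 50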;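 note: 0% = plate neutral controls and 100% = maraviroc near 300 nM; one replicate is shown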
Rce1 inh = blocks yeast Ras-converting enzyme | Q03530 | yeast membranes, quenched prenylated peptide cleavage fluorescence | calls only | 290,000 tested, 0.27% active;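 active = fall in fluorescence gain of 50% or more versus controls, with final raw signal at or below 3038400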;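 note: plate controls were neutral control wells for no effect and wells lacking membranes for full effect; tested at 10 µM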
UUG fidelity = modulators of start codon recognition fidelity in yeast; S. cerevisiae UUG-firefly luciferase reporter, luminescence/redox ratio; activity score, % at 18.7 µM; 350,000 tested, 0.13% active; AID 602363;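 active = replicate mean at a twofold rise or more, about +100% in these data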;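 note: firefly luciferase made from a UUG start codon reports start codon fidelity; reporter light over untreated wells divided by growth signal over untreated wells; some hits fall short of that in this replicate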
MT1-MMP act inh = inhibitors of human MT1-MMP activation; P50281; HT1080 RFP-PRO-GFP cells, GFP/RFP ratio fluorescence, overnight; percent of plate control window, DMSO zero; GFP/RFP ratio change, % at 20 µM; 360,000 tested, 0.061% active; AID 651647;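 active = GFP/RFP ratio change of at least 30% with cell ATP level not reduced by more than half and red fluorescence within 50% of control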; note: strong numbers were not always called active
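Assay system: HT1080 cells carrying an RFP-PRO-GFP reporter | Dosing: Single dose of 20 µM compound, 1% DMSO final | Incubation: Cells overnight before dosing, compound overnight, 37 °C, 5% CO2 | Evaluation: GFP/RFP fluorescence ratio | Control set: DMSO and RFP-L50D-GFP cell wells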
PABP FP inh = PABP-poly(A) binding inhibition | P11940 | PABP-poly(A) RNA binding, fluorescence polarization | inhibition, % at 35 µM | 290,000 tested, 1% active;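 active = 50% or more with normal probe brightness, or confirmed in later tests; about a fifth of its hits are not listed in these tables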;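 note: calls also rest on retests at 20 µM and on dose response follow-up; controls were probe without protein and protein plus probe with vehicle; some compounds called inactive have numbers as strong as hits; many hits fall short of the cut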
Target sequence (P11940 whole entry, looked up): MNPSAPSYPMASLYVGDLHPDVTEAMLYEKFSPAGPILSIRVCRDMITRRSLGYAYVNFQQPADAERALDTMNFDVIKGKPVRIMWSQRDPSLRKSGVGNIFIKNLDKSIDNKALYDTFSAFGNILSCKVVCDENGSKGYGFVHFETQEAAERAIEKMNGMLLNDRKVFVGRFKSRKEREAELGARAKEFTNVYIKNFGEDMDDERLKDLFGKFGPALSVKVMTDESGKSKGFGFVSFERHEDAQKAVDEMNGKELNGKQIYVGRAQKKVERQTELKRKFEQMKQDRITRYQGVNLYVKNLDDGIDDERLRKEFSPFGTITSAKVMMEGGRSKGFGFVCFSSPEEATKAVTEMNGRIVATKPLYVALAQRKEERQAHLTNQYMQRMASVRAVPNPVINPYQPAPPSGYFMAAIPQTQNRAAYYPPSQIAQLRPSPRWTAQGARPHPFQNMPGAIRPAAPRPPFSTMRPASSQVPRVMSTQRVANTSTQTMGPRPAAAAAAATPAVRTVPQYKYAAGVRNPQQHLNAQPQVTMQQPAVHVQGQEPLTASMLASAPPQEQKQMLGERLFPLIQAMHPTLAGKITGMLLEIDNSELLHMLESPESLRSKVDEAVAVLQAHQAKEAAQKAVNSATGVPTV
CSC inhib = blocks cancer stem cells | cancer stem cell-like cells viability, luminescence | inhibition, % at 7.5 µM | 300,000 tested, 1.1% active | AID 2717;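 active = mean at 75% or more and at least half the replicates too; tested in HMLE shEcad cells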;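 note: 0% = median of negative and 100% = median of positive control wells; the first replicate is given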
eIF4H inh = inhibitors of RNA binding by human eIF4H; Q15056; eIF4H fluorescence polarization binding assay; inhibition, % at 35 µM; 290,000 tested, 0.94% active; AID 2012;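 active = 50% or more with normal probe brightness, or confirmed in later tests; about a fifth of its hits are not listed in these tables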;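 note: calls also rest on retests at 20 µM and on dose response follow-up; 0% = protein and probe with vehicle and 100% = probe without protein; strong numbers were not always called active; many hits fall short of the cut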
eIF4H inh retest = second read-out of eIF4H inh, no call of its own (marks repeat the call); inhibition, %; compound at 20 µM; confirmation average;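 mean of two retest wells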
PABP FP inh retest = second read-out of PABP FP inh, no call of its own (marks repeat the call); inhibition, %; compound at 20 µM; confirmation repeats;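 mean of two retest wells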
MT1-MMP act inh RFP = recorded beside MT1-MMP act inh, whose call it bears; RFP signal change, %; measured here: RFP expression control read;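 0 = vehicle wells; hits needed this value within 50% of zero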
Numbers without * were called inactive; i = inactive; . = not tested or not shown. Only part of the results is shown; count on the stated rates, not on these rows.

SMILES	Env fusion inh	Rce1 inh	UUG fidelity	MT1-MMP act inh	MT1-MMP act inh RFP	PABP FP inh	CSC inhib	eIF4H inh	others
CC(C)c1ccccc1NC(=O)COC(=O)Cc1c[nH]c2ccccc12	7	i	-5	0	3	-11	2	-3
Cn1c(SCC(=O)N2CC(=O)Nc3ccccc32)nnc1C(F)(F)F	0	.	-6	0	5	.	.	.
C=CCn1c(COc2cccc(C)c2)nnc1SCC(=O)NC(=O)NCc1ccco1	.	i	-26	2	1	32	-6	62	eIF4H inh retest=-1;PABP FP inh retest=4
Cc1cccc(C)c1NC(=O)c1c(C)nn(-c2ccccc2)c1Cl	0	i	-14	1	4	-4	-9	15
CNc1cc(CSc2ccc(Cl)cc2)nc(C)n1	-47	i	-13	6	-3	1	-1	-2
CN1C(=O)CC(N2CCC(c3nc4ccccc4[nH]3)CC2)C1=O (stereo not given)	-15	i	-16	2	7	-7	-26	-14
COc1ccc(/C=C/C(=O)OCC(=O)N(C)CC(=O)Nc2ccc(C)cc2)c(OC)c1	0	.	-10	0	3	.	-27	.
COc1ccc(CNC(=O)C(=O)N2CCC3(CC2)OCCN3S(=O)(=O)c2ccc(C)cc2)cc1	.	i	.	0	-3	.	-7	.
CC1CCCCN1c1nnc(N)s1 (stereo not given)	-41	i	-12	-2	4	-7	-3	3
O=C(NCc1cccnc1)C1CCN(S(=O)(=O)c2cccs2)CC1	2	i	.	-2	0	-6	-2	7
C/C(=N/NC(=O)c1ccco1)c1cccc(NC(=O)c2ccc(C)s2)c1	.	i	-7	1	4	6	.	-2
COc1ccc(/C=C/c2ccncc2)cc1OC	.	.	-5	2	-1	-9	.	-8
Fc1ccc(CSc2nnc(Cc3sc(-c4ccccc4)nc3-c3ccccc3)o2)cc1	.	i	-8	0	-8	7	-14	2
CC(=O)N(Cc1cccc(Br)c1)c1ccc(N2CCOCC2)c(Cl)c1	14	i	-12	6	-7	8	-11	-6
CC1(C)Cc2cccc(OCC(=O)Nc3cccnc3)c2O1	-2	i	-7	-1	-4	-11	-10	0
COc1ccc(CN(C)C(=O)Cc2c[nH]c3ccccc23)c(OC)c1OC	-8	i	-9	5	1	-13	-4	-6
CC(=O)Nc1ccc(S(=O)(=O)N2CCC(C(=O)N[C@@H](C)C(=O)NC3CCCC3)CC2)cc1	-5	i	-1	-3	-4	6	-17	4
CCC(C)(C#CCN1CCCCC1)OC(C)=O (stereo not given)	-9	i	.	-2	1	8	-7	2
Cn1c(N)c(C(=O)Nc2ccc3ccccc3c2)sc1=S	-118	i	-3	-6	12	-3	11	1
CC1(C)NC(=O)N(CC(=O)OCC(=O)c2ccc(F)cc2)C1=O	-287	i	1	0	3	.	.	.
CCN(CC)c1ccc(N=Cc2ccccc2[N+](=O)[O-])cc1	-10	i	-12	52*	47*	-6	-3	2
CSCCC(NC(=O)OC(C)(C)C)C(=O)NC(CC(C)C)C(N)=O (stereo not given)	.	i	7	1	0	6	2	-3
CNc1ccccc1NC(=O)C1CCCN1C(=O)OCc1ccccc1 (stereo not given)	6	i	-25	3	7	8	13	4
CCCC12CN3CC(C)(CN(C1)C3c1ccc(OC)cc1)C2=O (stereo not given)	.	i	-1	3	13	-1	-1	5
CN1CC(=O)N(CC(=O)NCCc2ccc(F)cc2)c2ccccc2C1=O	-13	.	-7	1	3	-4	-12	0
COc1cccc(-c2nc3n(n2)C(c2ccc4c(c2)OCO4)C(C(N)=O)=C(C)N3)c1 (stereo not given)	-89	i	-19	12	6	6	8	-1
CCOC1=C2[C@@H](CN(S(=O)(=O)c3ccccc3C)[C@H]2c2ccc(Cl)cc2)[C@H]2C(=O)NC(=O)[C@H]2C1	79*	.	1	5	-2	.	.	.
Oc1ccc(Br)cc1-c1nc2cnccn2c1NC1CCCCC1	.	i	-5	-1	-4	-6	27	-2
Cc1c(C(=O)NCc2ccccc2)cnn1-c1ccccc1	.	i	-11	-1	2	-10	-7	1
COCCOC(=O)c1[nH]c2c(c1C)C(=O)CC(c1ccc(OC)cc1)C2 (stereo not given)	-3	i	-9	2	-4	-5	3	-8
NNC(=O)c1cccnc1Oc1ccccc1	-17	i	-4	-3	-1	-2	2	-8
CC(C)Oc1ccc(S(=O)(=O)N2CCOCC2)cc1NC(=O)C1CCCC1	.	.	-4	-2	3	.	-8	.
O=C(O)c1ccc(Cn2cc(/C=C\[N+](=O)[O-])c3ccccc32)o1	31	i	2	-6	0	22	10	4
CCc1cc(CNC(=O)c2ccc(OC)c(OC3CCN(C(C)C)CC3)c2)on1	-12	i	1	-2	2	-7	-14	4
Cc1ccc(S(=O)(=O)NCCCCCC(=O)Nc2nccs2)cc1	.	i	20	-4	-2	-7	.	-4
O=C(c1ccc(Cl)cc1)C1CCN(C(=O)C2CC2)CC1	.	i	.	0	-4	-4	9	8
CCOC(=O)c1sc(NC(=O)CSc2nnc(C(C)C)n2C)nc1C	-17	i	-8	1	-7	10	-9	-4
Cc1ccc(/C=N/N2CCN(c3ccc(Cl)cc3)CC2)o1	.	.	-16	7	-8	-3	1	6
COc1cccc(C(=O)Nc2ccc(S(=O)(=O)Nc3onc(C)c3C)cc2)c1	38	i	-12	5	6	19	-11	-5
CC(C)C(OC(=O)CN1C(=O)c2ccccc2C1=O)C(=O)NC1CCCC1 (stereo not given)	2	i	-8	2	3	2	-13	4
Cc1ccccc1-n1c(SCc2c(C)noc2C)nnc1-c1c[nH]c2ccccc12	.	i	-16	6	-6	-6	-9	1
COC1=C(Nc2ccccc2OC)C(=O)c2ccccc2C1=O	3	i	4	0	6	8	13	0
Cc1cccc(C)c1N1CCN(C(=O)Nc2ccc3c(c2)OCCO3)CC1	8	i	-5	1	-6	2	8	2
COc1cccc(NC(=O)NNC(=O)COc2ccc3ccccc3c2)c1	19	i	-8	-3	-4	2	-2	-1
COCc1ccc(C(=O)N2CCc3c([nH]c4ccccc34)C2c2ccccn2)s1 (stereo not given)	-10	i	.	-4	-4	1	3	3
COc1ccc(-c2nn(CCC#N)cc2C(=O)Nc2cccc(C(=O)O)c2)cc1OC	-19	i	-2	2	2	8	-5	1
COCCN(C(=O)Cc1ccc(S(=O)(=O)N2CCOCC2)s1)c1c(N)n(CC(C)C)c(=O)[nH]c1=O	0	.	-11	-14	-1	.	.	.
CN(CC(=O)N1CCCC1)S(=O)(=O)c1ccc2ccccc2c1	13	.	.	4	4	0	-2	-3

An excerpt from above in order of molar mass, rising.
SMILES	Env fusion inh	Rce1 inh	UUG fidelity	MT1-MMP act inh	MT1-MMP act inh RFP	PABP FP inh	CSC inhib	eIF4H inh	others
Cn1c(N)c(C(=O)Nc2ccc3ccccc3c2)sc1=S	-118	i	-3	-6	12	-3	11	1
CC(C)c1ccccc1NC(=O)COC(=O)Cc1c[nH]c2ccccc12	7	i	-5	0	3	-11	2	-3
O=C(NCc1cccnc1)C1CCN(S(=O)(=O)c2cccs2)CC1	2	i	.	-2	0	-6	-2	7
COCc1ccc(C(=O)N2CCc3c([nH]c4ccccc34)C2c2ccccn2)s1 (stereo not given)	-10	i	.	-4	-4	1	3	3
CC(=O)N(Cc1cccc(Br)c1)c1ccc(N2CCOCC2)c(Cl)c1	14	i	-12	6	-7	8	-11	-6
COc1ccc(/C=C/C(=O)OCC(=O)N(C)CC(=O)Nc2ccc(C)cc2)c(OC)c1	0	.	-10	0	3	.	-27	.
COCCN(C(=O)Cc1ccc(S(=O)(=O)N2CCOCC2)s1)c1c(N)n(CC(C)C)c(=O)[nH]c1=O	0	.	-11	-14	-1	.	.	.

Quoted at random: two compounds from above
SMILES	Env fusion inh	Rce1 inh	UUG fidelity	MT1-MMP act inh	MT1-MMP act inh RFP	PABP FP inh	CSC inhib	eIF4H inh	others
Cc1cccc(C)c1N1CCN(C(=O)Nc2ccc3c(c2)OCCO3)CC1	8	i	-5	1	-6	2	8	2
NNC(=O)c1cccnc1Oc1ccccc1	-17	i	-4	-3	-1	-2	2	-8

Remaining list, next part
SMILES	Env fusion inh	Rce1 inh	UUG fidelity	MT1-MMP act inh	MT1-MMP act inh RFP	PABP FP inh	CSC inhib	eIF4H inh	others
CC1(C)CC(=O)C2=C(C1)Nc1ccccc1NC2c1ccc2c(c1)OCO2 (stereo not given)	-106	i	-3	-16	5	15	-10	2
CC1=CC(C)(C)N2C(=O)C3(C(C#N)=C(N)OC4=C3C(=O)CC(C)(C)C4)c3cccc1c32 (stereo not given)	-15	i	.	.	.	-2	.	-2
CN(Cc1ccon1)C(=O)CC1C(=O)NCCN1Cc1ccc(F)c(F)c1 (stereo not given)	.	.	-20	-1	2	14	-10	12
Cc1cccc(NCCC(=O)c2ccc(Br)cc2)c1	.	i	-15	3	1	0	13	-13
Cc1ncc(CO)c2c1Oc1nc(-c3ccccc3)nc(SCC(=O)Nc3cccc(O)c3)c1C2	0	i	11	5	2	2	68	3
CCOC(=O)c1cc(CC)sc1NC(=O)COC(=O)c1ccccn1	-3	i	.	6	1	.	-5	.
Cc1ccc(-c2csc(NC(=O)CCCc3cccs3)n2)cc1	7	i	.	1	8	-11	.	1
CN(C)S(=O)(=O)N1CCC(Oc2ccc(C(=O)NC3CCCCC3)cc2)CC1	7	i	.	5	4	-5	-4	2
Cc1nc2ncnn2c(C)c1Cc1ccc(Cl)cc1F	5	i	-2	3	4	0	-10	-3
CC(=O)C1=CCC(c2ccc(C)o2)N(S(=O)(=O)c2ccc(C)cc2)C1 (stereo not given)	15	.	15	-1	-6	.	.	.
Nn1c(SCc2cc([N+](=O)[O-])cc3c2OCOC3)nnc1-c1cccnc1	13	i	.	5	8	0	-13	-2
O=C(CSc1nnc(CNC(=O)c2cccs2)o1)Nc1ccccc1C(F)(F)F	-5	i	-12	-2	3	2	-14	3
O=C(NCCN1CCOCC1)c1cc(Sc2ccccc2Cl)nc2ccccc12	8	i	.	.	.	0	-10	2
Cc1ccc(N(CC(=O)Nc2ccc3c(c2)OCCO3)S(=O)(=O)c2c(C)n[nH]c2C)cc1	-52	i	-12	-4	0	3	15	-6

Molecules from the list above that have a cyano group:
SMILES	Env fusion inh	Rce1 inh	UUG fidelity	MT1-MMP act inh	MT1-MMP act inh RFP	PABP FP inh	CSC inhib	eIF4H inh	others
COc1ccc(-c2nn(CCC#N)cc2C(=O)Nc2cccc(C(=O)O)c2)cc1OC	-19	i	-2	2	2	8	-5	1
CC1=CC(C)(C)N2C(=O)C3(C(C#N)=C(N)OC4=C3C(=O)CC(C)(C)C4)c3cccc1c32 (stereo not given)	-15	i	.	.	.	-2	.	-2

In the list so far, 2 have a COOH group.
SMILES	Env fusion inh	Rce1 inh	UUG fidelity	MT1-MMP act inh	MT1-MMP act inh RFP	PABP FP inh	CSC inhib	eIF4H inh	others
O=C(O)c1ccc(Cn2cc(/C=C\[N+](=O)[O-])c3ccccc32)o1	31	i	2	-6	0	22	10	4
COc1ccc(-c2nn(CCC#N)cc2C(=O)Nc2cccc(C(=O)O)c2)cc1OC	-19	i	-2	2	2	8	-5	1

Source: PubChem
